Screening data as filed in PubChem BioAssay.
OX1R antag-1: antagonists of human orexin 1 receptor | O43613 | CHO/OX1R cells, Fluo-8 calcium fluorescence, orexin A | inhibition, % at 5 µM | 330,000 compounds, 0.43% hits | AID 434989;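 active = inhibition above its plate's threshold, mean inhibition of all tested compounds on the plate plus 3 SD, cut at about 37% in these data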;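 also: 0% = orexin A challenge wells and 100% = SB-334867-A antagonist wells; not every result past the cut was called active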
Target sequence (O43613 whole entry, looked up): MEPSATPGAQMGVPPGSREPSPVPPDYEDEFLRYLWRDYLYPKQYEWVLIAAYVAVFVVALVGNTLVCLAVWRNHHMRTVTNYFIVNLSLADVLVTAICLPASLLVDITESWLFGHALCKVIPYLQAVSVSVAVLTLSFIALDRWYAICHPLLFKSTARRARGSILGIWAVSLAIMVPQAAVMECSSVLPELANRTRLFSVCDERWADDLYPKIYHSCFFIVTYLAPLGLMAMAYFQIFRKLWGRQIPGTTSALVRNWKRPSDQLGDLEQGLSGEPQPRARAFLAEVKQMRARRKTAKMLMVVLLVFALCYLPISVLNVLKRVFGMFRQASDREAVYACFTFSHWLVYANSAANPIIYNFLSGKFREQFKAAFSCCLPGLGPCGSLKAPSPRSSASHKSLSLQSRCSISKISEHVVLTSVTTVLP
OX1R antag-2: OX1R (human) antagonism; OX1R-expressing cells, FRET antagonist read-out; 330,000 compounds, 1.8% hits; AID 485270; inhibition, % at 6.6 µM; in the data active = inhibition mostly above about 38%, no sharp cut-off; inactive = mostly below about 40%;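 also: 0% = agonist challenge alone and 100% = reference antagonist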
* marks the source's active call; other numbers are inactive results.

1) Clc1ccc(CSc2nnc(CN3CCOCC3)n2-c2ccccc2)cc1Cl
2) CCOc1ccc(C(=O)Nc2cc(C)ccn2)cc1
3) O=C(NCC1CCCO1)c1ccccc1-c1nc(-c2ccccc2)no1 (stereo not given)
4) O=C1c2ccccc2-c2cccc(C(=O)N3CCN(C(=O)c4ccccc4)CC3)c21
5) O=C(CN1CCN(C(=O)c2ccco2)CC1)N1CCc2[nH]c3ccccc3c2C1
6) CCCCC1(c2ccc(F)cc2)NC(=O)N(CC(=O)N2CCN(C(=O)c3ccco3)CC2)C1=O (stereo not given)
Screen / compound no.	1	2	3	4	5	6
OX1R antag-2	0	13	17	20	3	11
OX1R antag-1	-20	-27	-32	-23	-3	-15

7) COc1ccc(Cl)cc1NC(=O)N1CCN(CCc2ccccc2)CC1
8) CC1CCCC(C)N1C(=O)COC(=O)Cc1ccc(Cl)cc1 (stereo not given)
9) COC(=O)C1=C(C)N(CCCC(=O)O)C(=O)NC1c1ccc(C(F)(F)F)cc1 (stereo not given)
10) Nc1nc(SCCN2C(=O)c3ccccc3C2=O)n[nH]1
11) Cc1ccc(OC(=O)NC2CCS(=O)(=O)C2)cc1C (stereo not given)
12) O=C1CC(SCCc2nc3ccccc3[nH]2)C(=O)N1c1ccc(Cl)cc1 (stereo not given)
Screen / compound no.	7	8	9	10	11	12
OX1R antag-2	-2	3	15	25	12	9
OX1R antag-1	4	-18	9	6	4	-25

13) CC(NC(=O)N1CCN(c2ccccc2F)CC1)c1ccc(F)c(F)c1 (stereo not given)
14) COc1ccc(S(=O)(=O)Nc2ccccc2Cl)cc1NC(C)=O
15) O=C(CCC(=O)c1ccc(F)cc1)Nc1cccc(C(F)(F)F)c1
16) CCn1c(=O)n(CC)c2cc(S(N)(=O)=O)ccc21
17) CCCCNC(=O)N1CCN(c2ccccc2OCC)CC1
18) CC(C)OCCCNC(=O)C1CCC(=O)N1C(C)C (stereo not given)
Screen / compound no.	13	14	15	16	17	18
OX1R antag-2	11	14	7	6	4	5
OX1R antag-1	-32	-14	-10	-20	-16	9

19) CCCCOC(=O)c1ccc(NC(=O)C(=O)NCCN(CC)CC)cc1
20) COCCn1c(SCC(=O)Nc2ccc(F)cc2F)nc2c([nH]c3ccccc32)c1=O
21) COc1ccccc1NC(=O)c1cc2ccccc2nc1C
22) O=C(COC(=O)CC1c2ccccc2CCN1S(=O)(=O)c1ccccc1)Nc1ccccc1 (stereo not given)
23) Cc1noc(C)c1S(=O)(=O)N1Cc2ccccc2CC1C(=O)N(C)C (stereo not given)
24) Cc1[nH]c2ccccc2c1NC(=O)CN1CCN(c2cccc(C(F)(F)F)c2)CC1
Screen / compound no.	19	20	21	22	23	24
OX1R antag-2	3	14	13	19	22	18
OX1R antag-1	-18	-10	-16	-10	4	-30

25) CC1CCN(c2nc(N3CCCCC3)nc(N3CCCCC3)n2)CC1
26) CC(=O)N/C(=C/c1ccc2c(c1)OCO2)C(=O)NCCO
27) COc1ccnc(CS(=O)c2nc3cc(C(O)(F)F)ccc3[nH]2)c1OC (stereo not given)
28) COC(=O)CSCC(=O)Nc1nnc(-c2ccccc2C)s1
29) Cc1ccc(S(=O)(=O)/N=C(\CSC(N)=O)Nc2ccccc2)cc1
30) Fc1ccccc1OCCSc1ncnc2nc[nH]c12
Screen / compound no.	25	26	27	28	29	30
OX1R antag-2	11	15	6	5	18	33
OX1R antag-1	-10	-1	-46	-9	-14	-24

31) Cc1cc2c3ccccc3ncn2n1
32) O=C(CSc1nnnn1Cc1ccccc1)NCCc1ccccc1
33) Cc1c(C)n(C)c2ccc([N+](=O)[O-])cc12
34) CCOC(=O)Cc1csc(NC(=O)CSc2nnnn2-c2ccc(F)cc2)n1
35) Cc1nc(N)c(C#N)c(-c2cccnc2)c1-c1ccccc1
36) Cc1ccc(S(=O)(=O)NCC(=O)OCc2nnc(-c3ccccc3)o2)cc1C
Screen / compound no.	31	32	33	34	35	36
OX1R antag-2	4	18	10	42	-4	4
OX1R antag-1	2	-29	-19	-5	-26	4

37) Nc1nc(-c2ccc3ccccc3c2)c(C2(O)C(=O)Nc3c(Br)cc(F)cc32)s1 (stereo not given)
38) CCCN(CCC)CC(C)(C)NS(=O)(=O)c1ccc(Cl)cc1
39) CCOC(=O)c1ccccc1NC(=O)CSc1nnnn1C
40) CCCCN(c1ccccc1)S(=O)(=O)c1cccc(C(=O)O)c1
41) CS(=O)(=O)N(CC(=O)N1CCC(C(N)=O)CC1)C1CCCCC1
42) CC(C)CN(C(=O)COC(=O)Cc1cccc2ccccc12)c1c(N)n(Cc2ccccc2)c(=O)[nH]c1=O
Screen / compound no.	37	38	39	40	41	42
OX1R antag-2	43	7	16	18	16	22
OX1R antag-1	-7	-17	-24	-33	-20	-29

43) Cc1nc2sc(C(c3ccccc3)N3CCC(O)CC3)c(O)n2n1 (stereo not given)
44) O=C(C(=O)c1ccc(O)cc1)c1ccccc1
45) O=C(CC1N=C2c3ccccc3N=C(SCc3ccccc3Cl)N2C1=O)NCc1ccco1 (stereo not given)
46) CC(=O)c1cccc(NC(=O)/C(=C\c2cccnc2)NC(=O)c2ccccc2)c1
47) CCCn1c(SCC(=O)NCCc2ccccc2)nnc1-c1ccco1
48) Cc1nnc(SCC(=O)Nc2sccc2C#N)n1Cc1ccccc1
Screen / compound no.	43	44	45	46	47	48
OX1R antag-2	-7	-3	40	17	16	7
OX1R antag-1	-16	-17	-19	-13	-22	-7

Part of the list above, with tabs:
entry	smiles	OX1R antag-2	OX1R antag-1
31	Cc1cc2c3ccccc3ncn2n1	4	2
32	O=C(CSc1nnnn1Cc1ccccc1)NCCc1ccccc1	18	-29
33	Cc1c(C)n(C)c2ccc([N+](=O)[O-])cc12	10	-19
34	CCOC(=O)Cc1csc(NC(=O)CSc2nnnn2-c2ccc(F)cc2)n1	42	-5
35	Cc1nc(N)c(C#N)c(-c2cccnc2)c1-c1ccccc1	-4	-26
36	Cc1ccc(S(=O)(=O)NCC(=O)OCc2nnc(-c3ccccc3)o2)cc1C	4	4
37	Nc1nc(-c2ccc3ccccc3c2)c(C2(O)C(=O)Nc3c(Br)cc(F)cc32)s1 (stereo not given)	43	-7
38	CCCN(CCC)CC(C)(C)NS(=O)(=O)c1ccc(Cl)cc1	7	-17
39	CCOC(=O)c1ccccc1NC(=O)CSc1nnnn1C	16	-24
40	CCCCN(c1ccccc1)S(=O)(=O)c1cccc(C(=O)O)c1	18	-33
41	CS(=O)(=O)N(CC(=O)N1CCC(C(N)=O)CC1)C1CCCCC1	16	-20
42	CC(C)CN(C(=O)COC(=O)Cc1cccc2ccccc12)c1c(N)n(Cc2ccccc2)c(=O)[nH]c1=O	22	-29
43	Cc1nc2sc(C(c3ccccc3)N3CCC(O)CC3)c(O)n2n1 (stereo not given)	-7	-16
44	O=C(C(=O)c1ccc(O)cc1)c1ccccc1	-3	-17
45	O=C(CC1N=C2c3ccccc3N=C(SCc3ccccc3Cl)N2C1=O)NCc1ccco1 (stereo not given)	40	-19

Following part.
49) CCc1sc(C(=O)NCc2ccco2)cc1C
50) Cc1ccc(C(=O)C2COC(=O)C2)cc1 (stereo not given)
51) CC(=O)Nc1c(O)nc(SCC(=O)Nc2ccc(C(C)=O)cc2)[nH]c1=O
52) Cc1cccc(Nc2nc3c(s2)CCCC3)c1
53) COc1ccccc1/C=N/OC(=O)c1ccc(F)cc1
54) CCCC(=O)Nc1cc(S(=O)(=O)N(CC)CC)ccc1Cl
Screen / compound no.	49	50	51	52	53	54
OX1R antag-2	12	4	0	11	28	4
OX1R antag-1	-19	-9	-10	-22	-7	-1

55) COc1ccc(-n2c(Cn3c(=O)sc4ccccc43)nnc2SC)cc1
56) COc1ccc(/C=C2/Sc3ccc(C(=O)NCCN4CCCCCC4)cc3NC2=O)cc1
57) Cc1nn(C)c(Oc2cccc(Cl)c2)c1C(=O)Nc1ccc(F)cc1
58) COC(=O)c1ccc(NC(=O)CSc2nnc(Cc3cccn3C)n2-c2ccc(F)cc2)cc1
59) Cc1cc(C)nc(SCC(=O)c2ccc(F)cc2)n1
60) Cc1ccc(-c2cc(C(F)F)n3ncc(C(=O)N4CCCc5ccccc54)c3n2)cc1
Screen / compound no.	55	56	57	58	59	60
OX1R antag-2	12	3	5	8	2	16
OX1R antag-1	2	-18	-8	-24	-14	-23

61) O=C(O)c1cccnc1Nc1ccc(Cl)cc1
62) CN1CCc2c1nc1ccccc1c2N (tested in a mixture with another compound)
63) O=C(CCCn1c(=S)[nH]c2ccsc2c1=O)NCCc1ccccc1
64) CCN(Cc1ccccc1)S(=O)(=O)c1ccc2oc(C(=O)O)c(C)c2c1
65) Cc1nc2ccccc2c(=O)n1NCc1cc(Br)cs1
66) CCCCOc1ccc(NC(=O)c2cc(F)c(F)cc2Cl)cc1
Screen / compound no.	61	62	63	64	65	66
OX1R antag-2	10	15	12	11	21	16
OX1R antag-1	2	-13	4	1	-27	-17

67) Nc1cccc(Oc2ccc3c(c2)C(=O)N(CC2CCCO2)C3=O)c1 (stereo not given)
68) COc1ccc(-c2nnc3sc(CCN4C(=O)c5ccccc5C4=O)nn23)cc1
69) COc1ccc(CCNC(=O)COC(=O)Cn2cnc3ccccc3c2=O)cc1
70) Cc1cccn2c(=O)c3cc(C(=O)NCC4CCCO4)c(=N)n(Cc4ccc(F)cc4)c3nc12 (stereo not given)
71) CC(C)CNC(=O)CCc1nc(-c2ccccc2)no1
72) CCC(C)(C)c1ccc(OC(=O)c2cccnc2Cl)cc1
Screen / compound no.	67	68	69	70	71	72
OX1R antag-2	1	17	21	42	13	10
OX1R antag-1	-36	-9	-17	-22	-16	-28

73) COCCCNC(c1ccccc1)c1ccncc1 (stereo not given)
74) CN1CN(C)C(c2ccncc2)=C1c1ccncc1
75) C=CCn1cc(C(=O)N2CCN(CC)CC2)c(=O)c2cc(S(=O)(=O)N(CC)CC)ccc21
76) COC(=O)c1c(NC(=O)c2ccc(Br)o2)sc(C)c1C
77) CCC(=O)c1ccc(OCCn2cncn2)cc1
78) c1ccc(NC(=NCc2ccco2)c2ccccc2)cc1
Screen / compound no.	73	74	75	76	77	78
OX1R antag-2	11	18	6	0	13	2
OX1R antag-1	6	-23	-3	-6	2	-6

Single records, from the list above:
COC(=O)c1c(NC(=O)c2ccc(Br)o2)sc(C)c1C is listed with OX1R antag-2 = 0; OX1R antag-1 = -6
c1ccc(NC(=NCc2ccco2)c2ccccc2)cc1 is listed with OX1R antag-2 = 2; OX1R antag-1 = -6

(list continues)
79) CSc1nnc(-c2ccc(S(=O)(=O)N3CCCCC3)cc2)o1
80) Cc1ccccc1NC(=O)c1ccc(CN(c2ccccc2)S(=O)(=O)c2ccccc2)cc1
81) CCOc1ccc(N(CC(=O)NN=C2CCN(C)CC2)S(C)(=O)=O)cc1
82) CC(=O)N(Cc1ccccc1)c1nc(-c2ccccc2)cs1
83) COc1ccc(NC(=O)COc2ccc(C)c(C)c2)cc1S(=O)(=O)N1CCCCC1
84) NS(=O)(=O)c1cccnc1Nc1cccc(Cl)c1
Screen / compound no.	79	80	81	82	83	84
OX1R antag-2	11	9	11	13	19	15
OX1R antag-1	-19	13	-36	-26	-19	-5

85) Cc1c(C(=O)/C=C/N(C)C)nnn1-c1ccc(F)c(Cl)c1
86) NS(=O)(=O)c1ccc(NS(=O)(=O)/C=C/c2ccccc2)cc1
87) NS(=O)(=O)c1ccc(CCNC(=O)c2coc3ccccc3c2=O)cc1
88) c1ccc(-c2cc(-c3nnc4n3N=C(c3ccc5ccccc5c3)CS4)[nH]n2)cc1
89) CC(C)N1CCc2c(sc(NC(=O)c3ccco3)c2C(N)=O)C1
90) O=C(COC(=O)c1cc(S(=O)(=O)N2CCOCC2)ccc1F)NCc1ccco1
Screen / compound no.	85	86	87	88	89	90
OX1R antag-2	3	18	3	-10	9	28
OX1R antag-1	-16	-5	-24	-27	-7	-15

91) CCc1nn(CC(=O)NCCCN2CCN(C)CC2)c(=O)c2cc3sc(C)cc3n12
92) CCN1C(=O)C(CC(=O)Nc2ccc(OC)cc2)N(Cc2cccs2)C1=S (stereo not given)
93) CCOC(=O)C1C2C=CC3(CN(Cc4ccccc4)C(=O)C13)O2 (stereo not given)
94) COc1ccc(CNS(=O)(=O)CCNC(=O)c2cccc(OC)c2)cc1
95) COc1ccc(/C=C2\Sc3ccc(C(=O)NCc4cccnc4)cc3N(C)C2=O)cc1OC
96) CC1CCCC(NC(=O)c2ccc3c(=O)n(CC4CCCO4)c(=O)[nH]c3c2)C1C (stereo not given)
Screen / compound no.	91	92	93	94	95	96
OX1R antag-2	6	8	19	16	21	27
OX1R antag-1	-8	7	-11	-16	-29	-33

97) NS(=O)(=O)c1ccc(CNC(=O)c2ccc3ccccc3n2)cc1
98) NC(=O)[C@H]1CC2(CC(c3cccc(NC(=O)COc4ccc(Cl)cc4)c3)=NO2)CN1C(=O)CC(c1ccccc1)c1ccccc1 (stereo not given in full)
99) CCOC(=O)C(Oc1ccc(=O)n(-c2ccccc2)n1)C(C)=O (stereo not given)
100) O=c1c2ccccc2oc2nc3n(c(=O)c12)CCCS3
101) COc1ccc(CNC(=O)Cn2nc(C(F)(F)F)c3c2CCC3)cc1
102) CCSc1ncnc2c(C#N)c3n(c12)CCCCC3
103) COc1ccc(C(=O)Nc2cc(OC)c(NC(=O)c3ccco3)cc2OC)cc1
Screen / compound no.	97	98	99	100	101	102	103
OX1R antag-2	19	21	4	8	6	29	35
OX1R antag-1	-9	5	-4	-5	-23	-6	-23

The list is partial; most or all hits stand in other tables.
